Assay outcomes (PubChem)
Rango-impB inh – qHTS Assay for Inhibitors of Rango (Ran-regulated importin-beta cargo) - Importin beta complex formation; Importin subunit beta-1 (Homo sapiens), Q14974; Rango CFP/YFP FRET sensor + importin beta, 45 min; Potency, µM (titrated, usually from 92.2 µM), inactives show at the top dose inhibition of complex formation; 340,000 compounds, 0.031% hits; AID 540263, 2011; active = rising FRET ratio curve, often small or poorly fitted; inconclusive = mostly compound fluorescence or quenching in the first reads; inactive = flat curves in all reads;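 further: potency means the concentration at half of the fitted maximal effect; 0% = DMSO wells and 100% = buffer wells lacking importin beta; nearly all actives have a fitted effect of over 15% in size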
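Inhibition scored from the CFP 486 nm/YFP 530 nm FRET ratio 45 min after adding 0.125 microM importin beta to 50 nM Rango biosensor preincubated 5 min with compound (room temperature, PBS with DTT, Tween-20, BSA). No-importin wells as positive control.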
miR-21 FLuc – qHTS Assay for Modulators of miRNAs and/orActivators of miR-21 | Potency, µM (series often up to 38.3 µM), for the others: at the top dose reporter change, positive = more light | 340,000 tested, under 10 active | HeLa miR-21 FLuc reporter, luciferase, 48 h | AID 2288, 2010; active = well fitted rising curve with a large enough effect; inconclusive = small, poorly fitted or top-dose-only effect; inactive = no such curve, though single readings can be large or run the other way;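 further: % of control where 0% means no effect; miR-21 action dims this reporter so a rising signal means less miR-21 action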
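Using DMEM plus 10% FBS, HeLa miR-21-FLuc cells are incubated with test compounds (final up to about 40uM) for 48 hours; firefly luciferase signal is then imaged following reagent-mediated lysis.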
Rango release inh – qHTS Assay for Inhibitors of RanGTP induced Rango (Ran-regulated importin-beta cargo) - Importin beta complex dissociation; Biochemical FRET Rango-importin beta, RanGTP-induced dissociation; AID 540253, 2011; 340,000 compounds, 0.071% hits; Potency, µM (top dose mostly 46.1 µM), without a hit: top-dose activity change, negative = inhibition; Snurportin-1 (Homo sapiens) + GTP-binding nuclear protein Ran (Homo sapiens) + Importin …; active means falling FRET ratio curve, often poorly fitted, with flat reads before Ran was added; inconclusive means other falling curves, or compound fluorescence or quenching; inactive means flat or rising ratio curve;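 further: potency means the concentration at half of the fitted maximal effect; % of control where 0% means no effect; nearly all actives have a fitted effect of over 45% in size; -100% = wells without RanGTP and RCC1; the record marks most hits as doubtful in a second field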
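Rango/importin beta premix (0.1/0.25 uM final), PBS + 1 mM DTT + 0.02% Tween-20 + 0.1% BSA; cpd 5 min RT; FRET pre-read; + RanGTP-RCC1 (0.6 uM Ran, 2 mM GTP, 0.2 uM RCC1); 45 min RT; FRET post-read, ex 430, em 486/530 nm.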
GLA inh pH 4.5 – qHTS Assay for Inhibitors of Human alpha-Galactosidase at pH 4.5 | Alpha-galactosidase A (Homo sapiens), P06280 | purified enzyme, 4-MU-alpha-Gal fluorescence, pH 4.5 | activity change, negative = inhibition, % at 105 µM | 230,000 tested, under 10 active; inconclusive = small, poorly fitted or top-dose-only inhibition, or a rising curve; inactive = flat fitted curve, though single readings scatter; no compound was filed as active;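 further: 0% = full activity with enzyme and -100% = basal without enzyme; dose as in the result columns while the protocol names 77 µM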
Target sequence (P06280 whole entry, looked up): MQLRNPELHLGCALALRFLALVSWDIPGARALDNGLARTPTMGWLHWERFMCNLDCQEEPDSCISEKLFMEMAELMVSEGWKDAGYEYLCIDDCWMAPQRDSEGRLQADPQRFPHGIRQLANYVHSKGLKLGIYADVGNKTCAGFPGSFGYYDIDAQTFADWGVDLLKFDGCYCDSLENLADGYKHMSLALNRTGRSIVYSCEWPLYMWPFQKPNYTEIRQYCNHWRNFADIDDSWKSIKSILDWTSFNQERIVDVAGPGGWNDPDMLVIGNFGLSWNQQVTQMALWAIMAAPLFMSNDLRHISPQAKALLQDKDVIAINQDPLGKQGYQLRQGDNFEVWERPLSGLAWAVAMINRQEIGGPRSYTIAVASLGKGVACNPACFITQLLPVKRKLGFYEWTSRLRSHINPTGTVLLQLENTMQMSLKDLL
An asterisk follows results filed as active; ? = inconclusive; · = no result given.

SMILES | Rango-impB inh | miR-21 FLuc | Rango release inh | GLA inh pH 4.5
N=c1n(CCO)c2ccccc2n1CCOc1ccccc1 | 0.8% | -1% | -17% | 2
CC(C)c1ccc2oc(=O)cc(CN3CCN(c4ccccc4)CC3)c2c1 | -6.6% | -4% | 21% | -8
O=C(CCCN1C(=O)/C(=C/c2ccccc2Cl)SC1=S)Nc1ccccn1 | 3.2% | ? | 15% | 2
Cc1cccc(N2C(=O)CC(N3CCOCC3)C2=O)c1 (stereo unspecified) | -0.6% | -5% | 7% | 0
COc1ccc(NC(=O)Cn2nc([N+](=O)[O-])c(Cl)c2C)cc1OC | 1.0% | 0% | 0% | -10
COc1ccccc1NC(=O)COC(=O)/C=C/c1ccc2c(c1)OCO2 | 1.9% | -1% | 8% | 1
O=C(CCNS(=O)(=O)c1ccccc1C(F)(F)F)NCc1ccc2c(c1)OCO2 | 2.9% | -6% | -4% | -8
CCCCCC(=O)NNC(=O)c1ccc(F)cc1 | 0.2% | -6% | 17% | -2
COc1ccc(-c2nc(C3CCCCC3)no2)cc1OC | 0.0% | -54% | -12% | -5
Cc1ccccc1NC(=O)C1CCCN1C(=O)NC1CCCCC1 (stereo unspecified) | 1.2% | -1% | 0% | 1
COC(=O)[C@@H]1C[C@@]2(Br)c3ccccc3N(S(=O)(=O)c3ccccc3)[C@H]2N1C(=O)OC | -3.1% | · | 16% | ·
CC(C)C(=O)Nc1cc(C(F)(F)F)ccc1N1CCOCC1 | 10% | -11% | -3% | 3
Cc1ccc(C)c(OCCn2cc(/C=C(\C#N)C(=O)NCc3cccs3)c3ccccc32)c1 | ? | -7% | -10% | -5
CC(=O)c1ccc(N2CCN(C(=O)Cn3c(=S)[nH]c4ncccc4c3=O)CC2)cc1 | · | 0% | · | -9
COC(=O)C1C/C(=N\NS(=O)(=O)c2ccc(C)cc2)c2ccccc2C1 (stereo unspecified) | 1.3% | 2% | -1% | ·

A stretch from further up:
SMILES | Rango-impB inh | miR-21 FLuc | Rango release inh | GLA inh pH 4.5
CC(=O)c1ccc(N2CCN(C(=O)Cn3c(=S)[nH]c4ncccc4c3=O)CC2)cc1 | · | 0% | · | -9
COC(=O)C1C/C(=N\NS(=O)(=O)c2ccc(C)cc2)c2ccccc2C1 (stereo unspecified) | 1.3% | 2% | -1% | ·

(list continues)
SMILES | Rango-impB inh | miR-21 FLuc | Rango release inh | GLA inh pH 4.5
CCOc1cc(C2/C(=C(/O)c3ccc(S(=O)(=O)N4CCCCC4)cc3)C(=O)C(=O)N2CCOC)ccc1O (stereo unspecified) | 4.8% | 2% | 16% | ·
O=[N+]([O-])c1cccc(-c2ccc(/C=N/NC(=S)NCc3ccco3)o2)c1 | -1.5% | 4% | 5% | -9
COc1ccccc1CC(=O)NNC(=O)CN(C)S(=O)(=O)c1ccc(Cl)cc1 | 0.3% | · | -9% | ·
CC(=O)Nc1ccc(/C(C)=N/NC(=O)CN(c2ccccc2Br)S(C)(=O)=O)cc1 | -3.9% | -11% | 17% | 2
CC(C)(C)OC(=O)N1CCC(NC(=O)c2ncn(Cc3ccccc3)c2C(=O)NC2CCN(C(=O)OC(C)(C)C)CC2)CC1 | -2.5% | · | 7% | ·
Cc1ccc(NC(=O)CN(C)C(=O)COC(=O)c2oc3ccccc3c2C)cc1 | 4.7% | · | -14% | ·
COc1cccc(CNC(=O)C2CCC(CNc3nc(=S)[nH]c4ccccc34)CC2)c1 (stereo unspecified) | 0.2% | 0% | 6% | 3
Cc1cc(F)ccc1S(=O)(=O)Nc1ncnc2sccc12 | -4.5% | -4% | -18% | -3
COc1ccc(Cn2c(=S)[nH]c3cc(C(=O)N4CCN(c5ccccc5)CC4)ccc3c2=O)cc1 | 3.1% | 2% | 3% | ·
CSc1nnc(-c2sccc2OCc2ccc(C)cc2)n1C | -0.2% | 1% | 5% | 2
O=C(Nc1ccc(C(=O)N2CCCC2)cc1)c1ccccc1F | 6.3% | -49% | 1% | 2
COc1ccc(C(=O)NC(=S)Nc2ccc(NC(=O)c3ccco3)cc2)cc1[N+](=O)[O-] | -4.4% | -7% | 0% | -1
CN(Cc1ccccn1)Cc1cn(Cc2ccccc2)nc1-c1ccc2c(c1)OCO2 | -1.6% | 2% | 0% | -5
O=C(c1cc2n(n1)C(C(F)(F)F)CC(c1ccco1)N2)N1CCN(c2ccccn2)CC1 (stereo unspecified) | 2.2% | -1% | -2% | -8
O=C(NCC(=O)N(Cc1ccccc1)C(C(=O)NC1CCCCC1)c1ccco1)c1ccco1 (stereo unspecified) | -2.1% | 0% | -10% | 5
COc1ccc(C(CNC(=O)c2cncc(Br)c2)N(C)C)cc1 (stereo unspecified) | -2.4% | -2% | 19% | 5
CCN(c1ccccc1)S(=O)(=O)c1ccc(Cl)c(NC(=O)COC(=O)c2cc(O)c3ccccc3c2O)c1 | · | 23% | · | -2
O=C(Nc1cccc2ccccc12)c1onc2c1CCCC2 | -1.3% | -65% | 1% | 7
COc1ccc(/C=C/C(=O)OCC(=O)NC2CCCCCCC2)cc1 | -0.5% | · | 0% | ·
Cc1cc(C(=O)Cn2cnc3cc([N+](=O)[O-])ccc3c2=O)c(C)n1CC1CCCO1 (stereo unspecified) | -2.5% | 0% | -20% | 4
COc1ccc(OCc2cccc(C(=O)N3CCCC3)c2)cc1 | 0.1% | -68% | -18% | 5
CC1CCC(NC(=O)C2CC(=O)N(c3ccc(Cl)cc3)C2)CC1 (stereo unspecified) | -4.1% | 0% | 12% | ·
CCOC(=O)c1c(C)[nH]c(C(=O)N2CCN(c3ccc(OC)cc3)CC2)c1C | -1.0% | 0% | -10% | 1
COc1ccc(NC(=O)c2cccc(N3C(=O)C4C5C=CC(C5)C4C3=O)c2)cc1 (stereo unspecified) | ? | -2% | -3% | ·
CC(NC(=O)CNC(=O)c1ccco1)c1ccc(S(N)(=O)=O)cc1 (stereo unspecified) | -0.2% | -3% | 24% | ·
CC1CC(C)C(=NNC(N)=O)C(C(O)CC2CCC(=O)NC2=O)C1 (stereo unspecified) | 0.6% | · | -15% | ·
O=C(Nc1cnccn1)Nc1ccccc1F | -4.5% | -21% | -10% | ·
CCOc1ccc(NC(=O)CC(C)S(=O)(=O)c2ccc3c(c2)NC(=O)CO3)cc1 (stereo unspecified) | -0.2% | -1% | -1% | ·
O=[N+]([O-])c1ccc(NC(=S)N2CCOCC2)cc1 | 2.9% | -3% | 22% | -8
CC(=O)c1cccc(NC(=O)c2ccco2)c1 | 1.3% | -9% | 7% | 3

Overlap with the part before: seven compounds, then new ones.
SMILES | Rango-impB inh | miR-21 FLuc | Rango release inh | GLA inh pH 4.5
COc1ccc(NC(=O)c2cccc(N3C(=O)C4C5C=CC(C5)C4C3=O)c2)cc1 (stereo unspecified) | ? | -2% | -3% | ·
CC(NC(=O)CNC(=O)c1ccco1)c1ccc(S(N)(=O)=O)cc1 (stereo unspecified) | -0.2% | -3% | 24% | ·
CC1CC(C)C(=NNC(N)=O)C(C(O)CC2CCC(=O)NC2=O)C1 (stereo unspecified) | 0.6% | · | -15% | ·
O=C(Nc1cnccn1)Nc1ccccc1F | -4.5% | -21% | -10% | ·
CCOc1ccc(NC(=O)CC(C)S(=O)(=O)c2ccc3c(c2)NC(=O)CO3)cc1 (stereo unspecified) | -0.2% | -1% | -1% | ·
O=[N+]([O-])c1ccc(NC(=S)N2CCOCC2)cc1 | 2.9% | -3% | 22% | -8
CC(=O)c1cccc(NC(=O)c2ccco2)c1 | 1.3% | -9% | 7% | 3
COc1ccc(N(CC(=O)NCCSc2ccccn2)S(C)(=O)=O)cc1Cl | -1.4% | -6% | -8% | 7
CCN(c1ccccc1)S(=O)(=O)c1ccc(OCC(=O)Nc2cc(C)on2)cc1 | -1.0% | -1% | 3% | -6
CC(=O)c1ccc(NC(=O)Nc2ccc(S(=O)(=O)N3CCCC3)cc2)cc1 | 1.3% | 10% | 3% | ·
CCOC(=O)C1=C(C)N=C2SC(C)C(=O)N2C1c1ccc(OC(C)=O)c(OCC)c1 (stereo unspecified) | · | -4% | · | 3
O=C(NCCc1ccncc1)Nc1ccc(F)cc1 | -0.8% | -1% | 1% | 4
COc1ccc(OC)c(NC(=O)C2CCN(S(=O)(=O)c3cccs3)CC2)c1 | 0.0% | 2% | 16% | -4
Cc1ccccc1-n1nnnc1SCC(N)=O | -0.1% | -3% | 3% | 7
CCn1c(SCC(=O)Nc2cccc(OC)c2)nc2c(c1=O)SCC2 | -2.2% | · | 5% | ·
COc1ccccc1N1CCN(C(=O)CSc2nc3ccccc3[nH]2)CC1 | 2.2% | -8% | -8% | -1
O=C(CSc1nnnn1-c1ccc(Cl)cc1)NNC(=O)c1ccc([N+](=O)[O-])cc1 | 0.1% | -1% | 5% | 0
CCOC(=O)CSC1=C(C#N)C(c2ccc(OC)cc2)C2=C(CC(C)(C)CC2=O)N1 (stereo unspecified) | ? | -15% | -7% | 5
C=CCc1ccc(OCCOCCOc2ccc(C)cc2[N+](=O)[O-])c(OC)c1 | 0.3% | -4% | -9% | -12
CC(C)c1ccc(NCCC(=O)c2cccs2)cc1 | 5.6% | -56% | -12% | -6
CCSc1ccc([C@@H]2[C@@H]3C(=O)N(CC)C(=O)[C@@H]3[C@]3(C(=O)OC)CCCN23)cc1 | -1.4% | · | -7% | ·
COc1ccc(C(=O)NC2CCCN(Cc3ccc(Cl)cc3)C2)c(OC)c1 (stereo unspecified) | -1.2% | 24% | -3% | ·
O=C(COC(=O)c1ccncc1)c1ccc(Br)cc1 | -0.5% | 2% | 8% | -5
CCC(C)(C)NC(=O)CN(C(=O)CCC(=O)Nc1cc(C)ccn1)c1ccc2c(c1)OCCO2 | ? | -1% | 12% | -1
O=C(Nc1ccccc1)Nc1ccc(Br)cc1F | -1.6% | -14% | -3% | -1
CCOc1ccc(Cl)cc1/C=N/O | 2.1% | -2% | -6% | -8
CC1(C(=O)NCC2CC2)C=CC2(CCCCC2)N1C(=O)c1ccccc1 (stereo unspecified) | 5.5% | -27% | 6% | 2
Cc1ccc(OCc2nnc(-c3ccc(Cl)cc3)o2)cc1 | 1.5% | · | -10% | ·
COC(=O)c1cc(OC)c(OC)cc1NC(=S)Nc1cc(Cl)ccc1OC | 3.3% | -5% | 28% | 2
O=Cc1cn(-c2ccccc2)nc1-c1ccccn1 | 4.7% | -9% | 4% | ·
COc1nc(-c2ccccc2)ccc1-c1noc(-c2ccc(F)cc2)n1 | · | -4% | · | 0
CC(C)[C@H](NC(=O)c1ccccc1)C(=O)OCC(=O)N1CC2(C)CC1CC(C)(C)C2 (stereo partly specified) | -5.1% | -4% | -2% | 3
CC(C)(C)c1ccc(C(=O)c2c[nH]c(C(=O)O)c2)cc1 | 3.0% | 4% | 1% | -3
O=C(Nc1cccc(S(=O)(=O)Nc2ccc(SC(F)F)cc2)c1)C1CCC1 | 1.7% | · | -2% | ·
Cc1ccc(NC(=O)c2cc(=O)c3ccccc3o2)cc1S(=O)(=O)N1CCOCC1 | -3.8% | 11% | 3% | -13
COCC(C)n1c(C)cc(C(=O)COC(=O)c2ccc3c(c2)NC(=O)CS3)c1C (stereo unspecified) | 0.4% | 0% | ? | -3
O=C(c1cccc(C(F)(F)F)c1)N1CCCC1 | ? | -2% | -1% | -9
COc1ccc2[nH]c(=O)cc(C(=O)O)c2c1 | 0.1% | 0% | -7% | 5
COc1cccc(OC)c1C(=O)Nc1ccc(S(=O)(=O)N2CCCCC2)cc1 | -1.8% | 7% | -3% | ·
COc1cc2ccccc2cc1C(=O)Nc1ccc(Br)cn1 | 2.6% | -30% | 9% | ·
COc1cc(OC)nc(NC2OC(=O)c3ccccc32)n1 (stereo unspecified) | 1.5% | 0% | -28% | 10

An excerpt; rates above refer to the full screens.
